# Calb biofilm kill = clotrimazole potentiators killing C. albicans biofilm, primary screen, 4-compound mixtures | C. albicans biofilm persisters + clotrimazole, fluorescence viability; primary screen in compound mixtures of four per well | inhibition, % at 7.6 µM | 120,000 tested, 0.02% active | AID 1242, 2008;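 active means inhibition above 30.3% in the primary screen of four-compound pools, then above 30% when the compound was retested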;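 further: compounds exposed to preformed 24 h biofilms for 48 h; the number belongs to the whole pool; some results filed as inactive read as strong as hits; inactives centre near 12; 0% = biofilm with clotrimazole alone and 100% = kill control; retested singly at about 60 µM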
#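 Probe or stimulus – Clotrimazole 50 µg/mL co-treatment · System – C. albicans biofilms · Schedule – 24 h biofilm formation, then 48 h compound exposure, 37 °C · Evaluation – percent inhibition of biofilm viability · Technique – 2-h Alamar Blue fluorescence, 535/590 nm excitation/emission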
# An asterisk follows results filed as active. Not all compounds are listed; rates above refer to the full screens.
Structure,Calb biofilm kill
O=C(NCc1ccccc1)c1nc(-c2cccs2)no1,9
O=C(CSC1=Nc2ccccc2C2=NC(CC(=O)N3CCN(c4ccccc4)CC3)C(=O)N12)NCC1CCCO1 (centres undefined),22
NNC(=O)c1ccc(NS(=O)(=O)c2ccc(Br)cc2)cc1,14
Cc1cc(Nc2n[nH]c(N)c2C#N)ccc1F,13
CSc1cccc(NC(=O)CSc2nnc(C)s2)c1,9
O=[N+]([O-])c1ccc2oc(-c3cccc(O)c3)nc2c1,-2
O=C1CCCC2=C1C(c1ccc(O)c(O)c1)c1c(ccc3ncccc13)N2 (centres undefined),8
O=C(CCc1nnc(CCCc2ccccc2)o1)N1CCCCCC1,7
CCOC(=O)c1ccccc1NC(=O)CN(c1ccc(OCC)cc1)S(C)(=O)=O,21
COC(=O)C1=NNC2(c3ccc(Cl)cc3)C(=O)N(c3ccc(Cl)cc3)C(=O)C12 (centres undefined),18
Cc1nc2cc(NC(=O)N3CCCC3)ccc2n1C,-3
COc1ccc([N+](=O)[O-])cc1N(CC(=O)NCc1ccco1)S(C)(=O)=O,3

# Compounds above containing a carbonyl joined to an NH by a bond outside any ring, in the order listed:
Structure,Calb biofilm kill
O=C(NCc1ccccc1)c1nc(-c2cccs2)no1,9
O=C(CSC1=Nc2ccccc2C2=NC(CC(=O)N3CCN(c4ccccc4)CC3)C(=O)N12)NCC1CCCO1 (centres undefined),22
NNC(=O)c1ccc(NS(=O)(=O)c2ccc(Br)cc2)cc1,14
CSc1cccc(NC(=O)CSc2nnc(C)s2)c1,9
CCOC(=O)c1ccccc1NC(=O)CN(c1ccc(OCC)cc1)S(C)(=O)=O,21
Cc1nc2cc(NC(=O)N3CCCC3)ccc2n1C,-3
COc1ccc([N+](=O)[O-])cc1N(CC(=O)NCc1ccco1)S(C)(=O)=O,3

# Other entries follow:
Structure,Calb biofilm kill
C=CCNC(=S)N1CCC(C(=O)c2ccc3c(c2)OCCO3)CC1,1
O=C(CCC(=O)NNc1nc2ccccc2c2nc(-c3ccccc3)nn12)NCCCN1CCOCC1,18
CNCCCC1Sc2ccccc2Oc2ccccc21 (centres undefined),12
O=C(CNC(=O)c1ccccc1)OCc1cccc([N+](=O)[O-])c1,21
CC(C)(C)NC(=O)NC(=O)CN1CCN(S(=O)(=O)c2ccccc2)CC1,19
Cc1ccc(S(=O)(=O)CC(=O)Nc2ccc(Cl)cn2)cc1,3
O=C1CCC/C(=N/NC(=O)c2ccc(NS(=O)(=O)c3cccs3)cc2)C1,7
CCOC(=O)c1[nH]c(C(=O)O)c(OC(=O)CC)c1C,7
O=C(O)CCC(=O)Nc1sc2c(c1C(=O)Nc1ccccc1)CCCCC2,1
Cc1ccc(CCNc2ccccc2C)cn1,17
CC(NCc1ccncc1)C12CC3CC(CC(C3)C1)C2 (centres undefined),9
Cc1ccc(C(=O)NNc2cc(=O)n(C)c(=O)n2C)cc1C,4
CCCn1c(SCC(=O)NCc2ccco2)nnc1-c1ccncc1,15
O=C(COC(=O)c1cccnc1Cl)c1ccc(F)cc1,3
CC1(C)CC2CC(C)(CN2c2ncnc3ccc(Br)cc23)C1 (centres undefined),14
CCC(C)NC(=O)CC(NS(=O)(=O)c1ccc(C)cc1)c1ccc(OC)cc1 (centres undefined),4
Cc1ccc(-c2nc3ncccc3o2)cc1NC(=O)Cc1ccc(Cl)cc1,17
O=c1ccn(Cc2ccccc2)cc1,16
Cc1nc2c(oc3ccc(Cl)cc32)c(=O)[nH]1,12
Cc1ccc(NC(=O)CCS(=O)(=O)c2ccc(Br)cc2)nc1,6
O=C(Cn1ncc2c(=O)oc3ccccc3c21)NCc1cccnc1,13
O=C(NCC1CCCN(Cc2ccccc2F)C1)c1cccc(C(F)(F)F)c1 (centres undefined),17
Nc1cc(N)nc(SCC(=O)Nc2ccccc2)n1,-3
O=C(c1cc(F)ccc1F)C1CCCN(C(=O)c2ccco2)C1 (centres undefined),14

# Compounds from the list above containing an NH in an aromatic ring:
Structure,Calb biofilm kill
Cc1cc(Nc2n[nH]c(N)c2C#N)ccc1F,13
CCOC(=O)c1[nH]c(C(=O)O)c(OC(=O)CC)c1C,7
Cc1nc2c(oc3ccc(Cl)cc32)c(=O)[nH]1,12

# The list continues.
Structure,Calb biofilm kill
Cc1c(Cl)cccc1NC(=S)NCc1cccn1C,0
Cc1ccc(-c2cc3cccc[n+]3cc2-c2ccc(C)cc2)cc1,19
Cc1nn(Cc2ccc(C(=O)O)o2)c(C)c1[N+](=O)[O-],20
O=C1CC(c2ccccc2F)C2=C(COC2=O)N1 (centres undefined),6
Cc1onc(-c2c(F)cccc2Cl)c1C(=O)OCC(=O)NC1CC1,4
Cc1cccc(NC(=O)c2cnn3ccccc23)c1C,23
C=CCN=C1CCCc2c1[nH]c1ccc(C)cc21,5
COc1ccccc1/C=C1\SC(=S)N(N2C(=O)CCCC2=O)C1=O,10
Cc1nn(C(=O)CNC(=O)c2ccccc2)c(C)c1C,20
CCSc1nc(NCCN(C)C)c2c3c(sc2n1)COC(C)(CC)C3 (centres undefined),13
CNC(=O)c1oc(-c2ccc(Cl)cc2)nc1C,15
COc1ccc(/C=C/C(=O)c2c(O)c(OC)c3occc3c2OC)cc1,3
Cc1ccc(C)c(NC(=S)NNC(=S)Nc2ccc(C(C)C)cc2)c1,17
CNC(=O)c1ccsc1NC(=O)c1ccccc1,7
O=C(Nc1ccccc1)c1cccc(S(=O)(=O)Oc2ccc([N+](=O)[O-])cc2)c1,19
Cc1cccc(-c2n[nH]c(S(C)(=O)=O)c2C#N)c1,13
Cc1ccc(C)c(NC(=O)c2c(Cl)nc3ccccn23)c1,11
CCCc1n(CC)c2ccccc2[n+]1CC(O)COC1CCCCC1 (centres undefined),20
CCOc1ccc(C(C)=O)cc1CN1C(=O)NC(C)(C2CC2)C1=O (centres undefined),6
CN1CCN(CCCNC(=O)c2ccc(Cn3c(=S)[nH]c4ccc(Br)cc4c3=O)cc2)CC1,11
CCC(Sc1ccc(Cl)cc1)C(=O)Nc1nnc(-c2cccc([N+](=O)[O-])c2)s1 (centres undefined),12
Cc1nc(N2CCOCC2)c2c(C)c(C(=O)Nc3ccc(F)cc3F)sc2n1,14
Cc1ccc(S(=O)(=O)N(C)C)cc1NC(=O)CCNC(=O)c1ccccc1Cl,12
CCCn1c(N)cc(=O)n(CCC)c1=O,8
CCOC(=O)N1N=C(c2ccccc2)CC1(O)C(C)(F)F (centres undefined),14
Clc1ccc(-c2nnc(-c3ccccc3)c(-c3c[nH]c4ccccc34)n2)cc1,16
CCCCC(=O)NNC(=S)NC(=O)c1ccc(C)cc1,11
CCCCNC(=O)CSc1nc2ccc(C)cc2[nH]1,5
COc1cc(C(=O)OCC(=O)c2c(N)n(C)c(=O)n(C)c2=O)ccc1OCCC(C)C,12
O=S(=O)(N/N=C/c1ccc(OC2CSC2)cc1)c1ccccc1,15
Cn1c(=O)[nH]c(=O)c2c1nc(CN1CCN(c3ccccc3F)CC1)n2CCc1ccccc1,15
CCOc1ccc(C(=O)N(CN2CCCC2=O)c2ccc(C)cc2)cc1,14
CCN(CC)c1ccc(/C=N/N2CCN(Cc3ccccc3Cl)CC2)c(O)c1,11
COCCn1c(NC(=S)NC(=O)C23CC4CC(CC(C4)C2)C3)cc(=O)[nH]c1=O,17
Cn1c(=O)c2cc(S(=O)(=O)NC(Cc3ccccc3)C(=O)NCC3CCCO3)ccc2n(C)c1=O (centres undefined),14
COc1ccc(CC(=O)Nc2cc(=O)n(C)c(=O)n2C)cc1OC,32

# Reformatted as labelled records: entries from further up.
CCOC(=O)N1N=C(c2ccccc2)CC1(O)C(C)(F)F (centres undefined)
  Calb biofilm kill: 14

Clc1ccc(-c2nnc(-c3ccccc3)c(-c3c[nH]c4ccccc34)n2)cc1
  Calb biofilm kill: 16

# New compounds follow
SMILES	Calb biofilm kill
CC1(C)CC(=O)C(C=NCC2CCN(C(=O)Cc3ccccc3)CC2)=C(O)C1	14
CCCCCCn1cc(C(=O)OCC)c(=O)c2cc(F)c(F)cc21	21
N/C(=N\OC(=O)c1ccc(Cl)c(Cl)c1)c1cccc(CSc2ccccn2)c1	14
Cc1ccc(S(=O)(=O)N2CCc3ccccc3C2CC(=O)O)cc1 (centres undefined)	14
N#C/C(=C\c1ccc(C(=O)O)cc1)c1nc2sc3c(c2c(=O)[nH]1)CCCC3	10
CCOC(=O)C1C(=O)NC(c2ccccc2)=NC1c1cccc(Br)c1 (centres undefined)	11
Cc1cccc(Oc2ccc(Cl)cc2N)c1	15
Cc1cccc(CN2C(=O)c3ccccc3Sc3ccc(C(=O)O)cc32)c1	15
Fc1ccccc1C(c1nnnn1C1CCCC1)N1CCN(Cc2ccccc2)CC1 (centres undefined)	10
O=C(O)/C=C/c1cccc(NS(=O)(=O)c2ccccc2)c1	13
Cn1nnnc1SCC(=O)N(C1CCCCC1)C1CCS(=O)(=O)C1 (centres undefined)	5
CC(C)n1c(NCc2ccc(Cl)cc2)nc2ccccc21	16
CC(C)COc1ccc(C(=O)N2C(=O)c3ccc(N)cc3C2=O)cc1	8
N#Cc1cnc(NN)nc1	5
NC(=O)CC(NC(=O)c1ccccc1)c1ccc(N2CCC(Br)CC2)c([N+](=O)[O-])c1 (centres undefined)	13
Cc1cccc(-c2noc(CNC(=O)Nc3ccc(F)cc3)n2)c1	14
NC(=O)NC(=O)C[n+]1cccc(/C=N/O)c1	9
S=C1NCN(Cc2ccco2)CN1CCc1ccccc1	13
Cc1ccccc1C(=O)NC(=S)NC1CCSC1=O (centres undefined)	4
COc1ccc(CCNC(=O)C2CCN(S(=O)(=O)N3CCC4(CC3)OCCO4)CC2)cc1OC	17
Cc1cc(O)c2c(c1)C(O)(C1OC(CO)C(O)C(O)C1O)c1cccc(O)c1C2=O (centres undefined)	17
CCCC1O[C@@H]2C[C@H]3[C@@H]4CCC5=CC(=O)C=C[C@]5(C)[C@H]4[C@@H](O)C[C@]3(C)[C@]2(C(=O)CO)O1 (some centres undefined)	19
Cc1ccc2nc3c(nc2c1C)C(O)=C3O	22
CN(C)/C=C/C(=O)c1ccc(Br)cc1	7
Cc1cccc(Nc2nnc(SCC(=O)NC3CCCc4ccccc43)s2)c1C (centres undefined)	21
O=C(Nc1cccc(S(=O)(=O)NCc2ccco2)c1)c1cc(-c2ccc(F)cc2)nc2ccccc12	8
COCCN1CCC(CNCc2cn(-c3cc(C)ccc3C)nc2-c2ccccc2)C1 (centres undefined)	27
COc1ccc(Nc2nc(N)nc(CSC(=S)N3CCN(c4ccccc4)CC3)n2)cc1	-1
CC(Sc1nnc2ccccn12)C(=O)Nc1ccc2c(c1)OCCO2 (centres undefined)	5
CCCC/S(C)=N/S(=O)(=O)c1ccc(C)cc1 (centres undefined)	16
O=C(Nc1ccccc1F)N(Cc1ccc(F)cc1)Cc1nc2ccccc2c(=O)[nH]1	5
CCOC(=O)c1cc2c(nc1N)CC(C)(C)OC2	9
Cc1cc(C)nc(SCC(=O)N/N=C/c2cccs2)n1	15
Nc1cc(N)nc(SCC(=O)NCc2ccco2)n1	14
COc1ccc(S(=O)(=O)NC(C)C)cc1C(=O)NC1CCCCC1	7
CCN(CC)CCOC(=O)c1ccc(NC(=O)C(C)NC(=O)C23CC4CC(CC(C4)C2)C3)cc1 (centres undefined)	25
Cn1cnc(S(=O)(=O)Nc2ccccc2N2CCOCC2)c1	18
CC(C)(C)NC(=O)C1Cc2ccccc2CN1 (centres undefined)	9
O=C(CSc1nccc(=O)[nH]1)Nc1cccc(S(=O)(=O)N2CCOCC2)c1	12
O=C(CNC(=O)c1ccc(Br)cc1)OCc1cc([N+](=O)[O-])cc2c1OCOC2	4
CN(c1ccc(C(=O)NCCSCc2ccc(Cl)cc2)cc1)S(=O)(=O)c1ccccc1	12
COc1ccc(/C=N/NC(=O)CCn2nc(C)cc2C)cc1	16
COc1ccc(/C=N/n2c(-c3ccc(C)cc3)n[nH]c2=S)cc1OC	30
Fc1ccccc1COc1ccc(Br)cc1CNCC1CCCO1 (centres undefined)	30
Cc1ccc(S(=O)(=O)Nc2ccc(Br)cc2C(NCC(=O)O)c2ccccc2)cc1 (centres undefined)	10
CCCn1ncc(CN2CCC(CO)(Cc3ccc(OC)cc3)CC2)c1C	12
Cc1oncc1C(=O)NC1CCCCC1	15
CCN1CCN(C(c2cccs2)C(C)NS(=O)(=O)c2ccc(C)cc2)CC1 (centres undefined)	5
CCOc1ccc(C(=O)Nc2ccc(N3CCN(C(C)=O)CC3)cc2)cc1[N+](=O)[O-]	-1
Cc1noc(C)c1C(=O)OCC(=O)Nc1cccc(S(=O)(=O)N(C)C)c1	17
O=C(Cn1cnc2cc([N+](=O)[O-])ccc2c1=O)Nc1ccccc1Cl	17
COc1ccc(NC(=O)CSc2nnc(NC(C)=O)s2)c([N+](=O)[O-])c1	-1
CCC(CC)c1nnc(NC(=O)c2cccnc2SC)s1	16
COc1cccc(C(=O)Nc2cc(=O)n(C)c(=O)n2C)c1	17
O=C(Cc1ccc(Cl)cc1)Nc1ccc(CN2CCCCC2)cc1	8
CCc1ccc2c(c1)C(c1ccc(N3CCOCC3)cc1)=NNC(c1ccncc1)=N2	13
CN1CCc2c(sc3nc(NN)n(Cc4ccccc4)c(=O)c23)C1	20
O=C(CNC(=S)N(Cc1ccccc1)Cc1ccccc1F)NCCc1ccccc1	4
CCOC(=O)c1c(C)[nH]c(-c2csc(C)n2)c1C	14
Cc1cc(N/N=C/c2ccccc2)nc(N)n1	11
COc1ccc(S(=O)(=O)N2CCOCC2)cc1NC(=O)c1ccccc1-c1ccc(C(F)(F)F)cc1	21

# Bioassay records as filed in PubChem.
